High-throughput results: PubChem, National Center for Advancing Translational Sciences (NCATS)
Menin MLL FP FL – menin-MLL binding inhibition, fluorescein peptide; Fluorescence polarization, fluorescein-MLL peptide displacement from menin; FP activity change, % at 61.4 µM; 290,000 tested, under 10 active; inconclusive = falling polarisation curve, or a change in total fluorescence; inactive = total fluorescence flat and polarisation flat or rising; no compound was filed as active; the % refers to the polarisation; negative = inhibition;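 note: % of control where 0% means no effect; inhibitors lower the polarisation; unlabelled MLL peptide was the positive control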
CtBP-E1A blk – inhibitors of CtBP/E1A interaction. AlphaScreen GST-E1A/His-CtBP binding, 1536-well; hits give low values; control for the full effect not named in the record. activity change, % (no concentration beside the values). 0.49% of 340,000 active; in the data active means activity change below about -65%; inconclusive means about -30% to -65%; inactive means above about -30%; note: % is set by controls: 0 for no effect and ±100 for the full control effect; compound concentration not given in the record
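Protein mix (5X: 125 nM each GST-E1A, His-CtBP) was incubated with pinned compound 2 h at 37 deg C in dark, in 50 mM Tris pH 8.0 buffer with 300 mM NaCl. Glutathione donor and nickel acceptor beads followed; AlphaScreen signal read after 1 h.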
Sfp PPTase inh – blocks B. subtilis Sfp PPTase activity. Q9F4F7. Biochemical Sfp PPTase activity, qHTS. Potency, µM, inactives show max response, negative = inhibition, most hits filed as inhibitors. 3.5% of 310,000 active; active = well fitted inhibition curve with a large enough effect; inconclusive = small, poorly fitted or top-dose-only effect, or another doubt; inactive = no such curve, though single readings can be large or run the other way;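 note: the enzyme is Sfp with the accession as filed and its product quenches rhodamine fluorescence; potency is the fitted concentration of half-maximal effect; 0% = enzyme reaction without inhibitor and -100% = no enzyme wells; top concentration of the series not given in the record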
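Fluorescence-quenching assay: 15 nM Sfp-PPTase preincubated 15 min at room temperature with compound, then 5 uM rhodamine-CoA and 12.5 uM BHQ-2-labelled YbbR peptide added. Fluorescence (ex 525/em 598 nm) read at start and after 30 min; difference gives rate.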
TRPV1 PAM – potentiators of human vanilloid receptor 1 (TRPV1). TRPV1-expressing cells, Fluo-8 calcium influx, capsaicin EC20 potentiation; host cell line not named in the record; control for the full effect not named in the record. potentiation, % at 8.33 µM. 0.02% of 320,000 active. AID 540277; active means potentiation above 80%; inconclusive means 30% to 80%; inactive means below 30%; note: 0% is about no effect
Target sequence (Q8NER1 whole entry, looked up): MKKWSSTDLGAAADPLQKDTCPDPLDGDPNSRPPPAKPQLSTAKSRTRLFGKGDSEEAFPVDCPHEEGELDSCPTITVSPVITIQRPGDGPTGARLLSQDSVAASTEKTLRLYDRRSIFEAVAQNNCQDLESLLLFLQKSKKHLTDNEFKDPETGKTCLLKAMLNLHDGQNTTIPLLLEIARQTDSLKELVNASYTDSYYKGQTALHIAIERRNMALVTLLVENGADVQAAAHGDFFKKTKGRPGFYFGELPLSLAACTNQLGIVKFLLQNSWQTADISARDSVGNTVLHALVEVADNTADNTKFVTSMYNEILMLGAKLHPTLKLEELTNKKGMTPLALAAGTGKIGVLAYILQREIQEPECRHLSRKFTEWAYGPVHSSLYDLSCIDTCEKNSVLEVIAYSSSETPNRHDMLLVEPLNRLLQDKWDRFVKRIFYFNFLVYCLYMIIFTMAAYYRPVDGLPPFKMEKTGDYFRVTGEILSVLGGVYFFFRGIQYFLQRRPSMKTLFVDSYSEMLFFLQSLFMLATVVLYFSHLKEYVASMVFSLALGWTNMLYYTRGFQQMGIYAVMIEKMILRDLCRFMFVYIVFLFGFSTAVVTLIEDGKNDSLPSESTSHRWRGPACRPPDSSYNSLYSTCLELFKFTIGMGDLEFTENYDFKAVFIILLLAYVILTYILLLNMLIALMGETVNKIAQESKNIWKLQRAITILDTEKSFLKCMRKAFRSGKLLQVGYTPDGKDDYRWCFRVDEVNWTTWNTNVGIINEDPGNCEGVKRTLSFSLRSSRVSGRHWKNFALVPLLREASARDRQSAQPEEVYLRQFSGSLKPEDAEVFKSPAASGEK
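Cells expressing TRPV1 were dye-loaded with Fluo-8 and read kinetically: 10 s baseline, 3 min after compound (agonist portion), then 2 min after EC20 capsaicin (allosteric enhancer portion). Calcium-bound dye fluorescence at 480/520 nm.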
gsp ag – agonists of gsp mutant (McCune-Albright syndrome); AID 624287; Potency, µM (top dose mostly 76.9 µM), inactives show at the highest dose activation (cAMP increase), usual class: activators; gsp mutant cells, cAMP HTRF, 30 min; control for the full effect not named in the record; 0.13% of 340,000 active; active = well fitted activation curve with a large enough effect; inconclusive = small, poorly fitted or top-dose-only effect, or another doubt; inactive = no such curve, though single readings can be large or run the other way; cell line not stated here;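 note: phosphodiesterase inhibitor Ro 20-1724 added with compounds to block cAMP breakdown; potency is the fitted concentration of half-maximal effect; nearly all actives have a fitted effect of over 60% in size; about a fifth of the inactives were tested at one dose only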
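Cells in DMEM/10% FBS with G418 were pretreated with compounds in DMSO plus […] (300 uM stock) for 30 min at 37C. cAMP was measured by HTRF (cAMP-d2 plus anti-cAMP antibody-K) after 30 min at room temperature.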
gsp antag – antagonizes gsp, the McCune-Albright syndrome mutation; gsp-mutant cells, cAMP HTRF, 30 min; control for the full effect not named in the record; Potency, µM (highest dose often 76.9 µM), without a hit: at the top dose activity change, negative = inhibition, usual class: inhibitors; 0.4% of 340,000 active; AID 624288; active = falling curve of any shape with a large fitted effect; inconclusive = falling curve, mostly with a smaller effect; inactive = flat or rising curve; cell line not stated here;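 note: intracellular cAMP measured with PDE inhibitor Ro 20-1724 present during compound exposure; potency is the fitted concentration of half-maximal effect; % is set by controls: 0 for no effect and ±100 for the full control effect; nearly all actives have a fitted effect of over 65% in size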
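Measurement of cellular cAMP by homogeneous time-resolved fluorescence following a 30 min compound exposure at 37C. The PDE inhibitor […] was present throughout; the assay buffer was DPBS with 0.05% BSA and 0.005% Tween 20.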
ClpP mod – qHTS Assay for Activators of ClpP. purified B. subtilis ClpP, FRET peptide cleavage, 20 min. 1.9% of 340,000 active. Potency, µM (highest dose often 57.5 µM), without a hit: top-dose activity change, negative = active; active = well fitted falling curve with a large enough effect; inconclusive = small, poorly fitted or top-dose-only effect; inactive = no such curve, though single readings can be large or run the other way; note: potency is the fitted concentration of half-maximal effect; the source files actives as falling curves though it sought activators and does not explain the sign; nearly all actives have a fitted effect of over 65% in size; many hits overshoot -100%
Target sequence (P80244 whole entry, looked up): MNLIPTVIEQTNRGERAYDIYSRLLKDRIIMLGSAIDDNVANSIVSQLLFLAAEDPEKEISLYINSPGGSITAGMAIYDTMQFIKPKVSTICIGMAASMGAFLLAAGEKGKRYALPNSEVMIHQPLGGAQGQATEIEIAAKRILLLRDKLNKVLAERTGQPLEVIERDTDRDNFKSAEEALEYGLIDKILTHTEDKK
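FRET quenching reversal measured ClpP activation: 10 microg/mL B. subtilis ClpP at pH 8 with the FRET-FV decapeptide, read at 430 nm after 320 nm excitation. The 20-min minus 0-min signal was scaled between DMSO/no-enzyme wells and ADEP (5.8 microM final).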
* = called active by the depositor; [ ] = remark or other dose.

How did Cc1c(OC(C)C(=O)N2C[C@H]3C[C@@H](C2)c2cccc(=O)n2C3)ccc2c3c(c(=O)oc12)CCCC3 (stereo not given in full) do in these assays?
Menin MLL FP FL: 0.1; CtBP-E1A blk: 6.0; Sfp PPTase inh: 4.1%; TRPV1 PAM: -6.3; gsp ag: 23.1%; gsp antag: -4.2%; ClpP mod: 4.0%

Results for CCc1sc(C(=O)NCc2ccco2)cc1Br ?
Menin MLL FP FL: 1.0; CtBP-E1A blk: -8.7; Sfp PPTase inh: -5.0%; TRPV1 PAM: -1.0; gsp ag: 25.8%; gsp antag: 7.1%; ClpP mod: 0.5%

What do the screens show for `O=C(NC1CC1)C1=C[C@@H](C2CCCCC2)C[C@@H](OCc2ccc(CO)cc2)O1`?
Menin MLL FP FL: 0.3; CtBP-E1A blk: 1.3; Sfp PPTase inh: 5.8%; TRPV1 PAM: -17.6; gsp ag: -0.4%; gsp antag: 2.8%; ClpP mod: -0.6%

How did Cc1cc(CNC[C@H]2O[C@@H](n3cnc(C(N)=O)n3)[C@H](O)[C@@H]2O)c(C)n1-c1cccnc1 do in these assays?
CtBP-E1A blk: -18.1; gsp antag: 9.3%; ClpP mod: -11.3%

What do the screens show for `O=C(O)/C=C/c1cn(-c2ccccc2)nc1-c1cc2ccccc2oc1=O`?
Menin MLL FP FL: -0.8; CtBP-E1A blk: 9.2; Sfp PPTase inh: 6.3%; TRPV1 PAM: -5.5; gsp ag: inconclusive; gsp antag: inconclusive; ClpP mod: -6.1%

Results for Cc1cc([N+](=O)[O-])nn1CC(=O)NNC(=S)Nc1ccc(Cl)cc1 ?
Menin MLL FP FL: 0.6; CtBP-E1A blk: 6.7; Sfp PPTase inh: 26.9%; TRPV1 PAM: 7.1; gsp ag: 0.0%; gsp antag: -13.7%; ClpP mod: -0.7%

What do the screens show for `Cc1ccc2nc3sc(C(=O)Nc4c(C)[nH]c(=O)[nH]c4=O)c(N)c3cc2c1`?
Menin MLL FP FL: inconclusive; CtBP-E1A blk: -6.5; Sfp PPTase inh: -16.5%; TRPV1 PAM: -7.6; gsp ag: -32.4%; gsp antag: -1.5%; ClpP mod: -10.3%

What do the screens show for `CC(=O)Nc1cccn(Cc2c(Cl)cccc2Cl)c1=O`?
Menin MLL FP FL: 1.1; Sfp PPTase inh: 4.4%; TRPV1 PAM: -1.7; gsp ag: 26.2%[15.4 µM]; gsp antag: -0.2%

How did O=C(Nc1ccccc1)c1cc(-c2ccccc2Cl)no1 do in these assays?
Menin MLL FP FL: 11.0; CtBP-E1A blk: 7.7; Sfp PPTase inh: -12.7%; TRPV1 PAM: -6.3; gsp ag: -32.7%[inhibitor]; gsp antag: -20.8%; ClpP mod: -8.5%

How did COc1ccc(OC)c(NC(=O)CCc2c[nH]c3ccccc23)c1 do in these assays?
Menin MLL FP FL: -1.2; CtBP-E1A blk: -11.5; Sfp PPTase inh: 9.4%; TRPV1 PAM: 22.6; gsp ag: 0.5%[15.4 µM]; gsp antag: -4.1%

How did COc1ccccc1NC(=O)CC1SC(=N)N(c2ccccc2)C1=O (stereo not given) do in these assays?
Menin MLL FP FL: 0.1; CtBP-E1A blk: -4.2; Sfp PPTase inh: 13.9%; TRPV1 PAM: 8.5; gsp ag: -1.5%[15.4 µM]; gsp antag: -7.8%; ClpP mod: -0.7%

Results for O=C(Nc1ccccc1C(=O)NC1CC1)c1ccc([N+](=O)[O-])o1 ?
CtBP-E1A blk: -24.8; TRPV1 PAM: 0.1; gsp ag: 5.7%[15.4 µM]; gsp antag: 7.3%; ClpP mod: -7.9%

What do the screens show for `O=C(Nc1nnc(-c2cccs2)o1)c1cccc(C(F)(F)F)c1`?
Menin MLL FP FL: -4.1; CtBP-E1A blk: -11.7; Sfp PPTase inh: 14.0%; TRPV1 PAM: 6.2; gsp ag: -48.3%[inhibitor]; gsp antag: -4.9%; ClpP mod: -0.8%

Results for CCc1ccc(NC(=O)CSc2nnc(-c3ccco3)o2)cc1 ?
CtBP-E1A blk: 7.2; Sfp PPTase inh: 11.5%; TRPV1 PAM: -19.8; gsp ag: 6.7%; gsp antag: -1.0%; ClpP mod: 0.7%

What do the screens show for `Cc1cc(Cl)c(S(=O)(=O)NC(C(=O)O)C(C)C)cc1OCC(=O)NC1CCCCC1` (stereo not given)?
Menin MLL FP FL: -0.6; CtBP-E1A blk: 4.6; Sfp PPTase inh: -0.3%; TRPV1 PAM: 4.7; gsp ag: 14.5%; gsp antag: -7.3%; ClpP mod: -0.7%

Results for CC1C(=O)N(Cc2cn(CCC3OCCCO3)nn2)CCS(=O)(=O)N1Cc1ccc(-c2ccccc2)cc1 (stereo not given) ?
CtBP-E1A blk: 2.0; gsp ag: -1.0%; ClpP mod: 0.9%

What do the screens show for `Cc1c(C)c2ccc(OCC(=O)Nc3ccc(S(N)(=O)=O)cc3)c(C)c2oc1=O`?
Menin MLL FP FL: -9.7; CtBP-E1A blk: -23.4; Sfp PPTase inh: 7.1%; TRPV1 PAM: 10.1; gsp ag: inconclusive; gsp antag: -4.1%; ClpP mod: 3.9%

How did O=C(O)c1ccccc1 do in these assays?
CtBP-E1A blk: 10.5; gsp antag: 2.7%; ClpP mod: -1.4%

What do the screens show for `COc1ccc(CCNS(=O)(=O)c2cccc3nsnc23)cc1OC`?
Menin MLL FP FL: -0.9; CtBP-E1A blk: -0.6; Sfp PPTase inh: 12.8%; TRPV1 PAM: -18.9; gsp ag: -27.0%; gsp antag: 5.1%; ClpP mod: 1.9%

Results for O=c1[nH]c(C2CCN(S(=O)(=O)c3ccc(C(F)(F)F)cc3)CC2)nc2c1nnn2Cc1ccc(F)cc1 ?
Menin MLL FP FL: 2.8; CtBP-E1A blk: -1.4; Sfp PPTase inh: 6.0%; TRPV1 PAM: -5.6; gsp ag: -46.3%[inhibitor]; gsp antag: -18.0%; ClpP mod: 1.4%

Results for C#CCOCCOCCOCCNc1nc(N2CCN(C(=O)[C@H](CCCCN)n3cc([C@@H](N)C(C)CC)nn3)CC2)nc(N2CCN(C(=O)[C@H](Cc3cc4ccccc4[nH]3)n3cc([C@@H](N)CC(C)C)nn3)CC2)n1 (stereo not given in full) ?
Menin MLL FP FL: -0.1; CtBP-E1A blk: -19.3; Sfp PPTase inh: -12.8%; TRPV1 PAM: -0.5; gsp ag: 1.0%; gsp antag: -5.1%; ClpP mod: -14.6%

What do the screens show for `NC(=O)C1CCN(C(=O)CCc2nc3sc4c(c3c(=O)[nH]2)CCCC4)CC1`?
CtBP-E1A blk: -0.5; TRPV1 PAM: -7.8; gsp ag: 28.1%; gsp antag: 13.0%; ClpP mod: -6.5%

What do the screens show for `Cc1c(OC(=O)c2ccc([N+](=O)[O-])cc2)c2c(c[n+]1C)COC(C)(C)OC2`?
Menin MLL FP FL: -9.9; CtBP-E1A blk: -2.3; Sfp PPTase inh: -32.9%; TRPV1 PAM: -0.8; gsp ag: inconclusive; gsp antag: -3.5%; ClpP mod: -19.4%

Results for Cc1cc(OCCn2cc(/C(N)=N/O)c3ccccc32)ccc1Cl ?
Menin MLL FP FL: 1.6; CtBP-E1A blk: 9.8; Sfp PPTase inh: -16.2%; gsp ag: -8.8%; gsp antag: 7.5%; ClpP mod: -0.4%

How did C/C(=N\NC(=O)C1CC1)c1cccc(NC(=O)c2cccc(Cl)c2)c1 do in these assays?
Menin MLL FP FL: 0.2; Sfp PPTase inh: 21.6%; TRPV1 PAM: 12.6

What do the screens show for `Nc1ncnc(Nc2cccc(Cl)c2Cl)n1`?
Menin MLL FP FL: -1.7; CtBP-E1A blk: 13.6; Sfp PPTase inh: 4.5%; TRPV1 PAM: -9.9; gsp ag: inconclusive; gsp antag: 5.7%; ClpP mod: -0.2%

How did Fc1ccc(N2CCN(Cc3nnc(-c4ccccc4)o3)CC2)cc1 do in these assays?
Menin MLL FP FL: 3.3; CtBP-E1A blk: 6.1; Sfp PPTase inh: 6.5%; TRPV1 PAM: 23.4; gsp ag: -18.4%; gsp antag: 8.2%; ClpP mod: -1.0%

How did Cc1ccc(-c2csc(NC(=O)c3ccco3)n2)cc1C do in these assays?
Menin MLL FP FL: -0.4; CtBP-E1A blk: -11.1; Sfp PPTase inh: -2.0%; TRPV1 PAM: 17.2; gsp ag: 1.2%; gsp antag: -22.0%

Results for Fc1ccc(CNC(=S)NCc2ccccc2)cc1 ?
Menin MLL FP FL: -1.4; CtBP-E1A blk: -2.0; Sfp PPTase inh: -1.7%; TRPV1 PAM: -4.2; gsp ag: 0.9%[15.4 µM]; gsp antag: 5.7%; ClpP mod: 0.9%

What do the screens show for `Cc1ccc(C)c(NS(=O)(=O)c2cc(C(=O)NCc3ccccn3)ccc2Cl)c1`?
Menin MLL FP FL: 0.1; CtBP-E1A blk: -7.7; Sfp PPTase inh: 4.0%; TRPV1 PAM: 1.3; gsp ag: -6.3%; gsp antag: -6.7%; ClpP mod: -2.3%

What do the screens show for `Cc1cc(C(=O)NCCc2ccccc2)ccc1[N+](=O)[O-]`?
Menin MLL FP FL: -2.9; CtBP-E1A blk: 5.4; Sfp PPTase inh: 13.7%; TRPV1 PAM: 7.4; gsp ag: -31.5%[inhibitor]; gsp antag: -3.5%; ClpP mod: -0.6%

How did CCCCn1c(=O)c(CCC(=O)OCC(=O)NC(=O)NCCOC)nc2ccccc21 do in these assays?
Menin MLL FP FL: -5.8; CtBP-E1A blk: 10.2; Sfp PPTase inh: 12.1%; TRPV1 PAM: 1.9; gsp ag: -0.7%; gsp antag: -5.7%

What do the screens show for `COc1cc2c(=O)nc3n(c2cc1OC)C(c1ccccc1)N=C(N)N3` (stereo not given)?
Menin MLL FP FL: 5.5; Sfp PPTase inh: 4.1%; TRPV1 PAM: 18.4

Results for O=C(N/C(=C\c1ccc(Br)cc1)C(=O)N1CCOCC1)c1ccc(Br)o1 ?
Menin MLL FP FL: -6.4; CtBP-E1A blk: -0.8; Sfp PPTase inh: 15.2%; TRPV1 PAM: 5.9; gsp ag: 28.1%; gsp antag: 1.6%; ClpP mod: -0.8%

How did COc1ccc2cc(Br)ccc2c1CC(=O)NCCCN1CCOCC1 do in these assays?
CtBP-E1A blk: -0.4; gsp ag: inconclusive; gsp antag: 7.7%

Results for COc1ccc(-n2ccnc2SCC(=O)NCc2ccc(F)cc2)c(OC)c1 ?
Menin MLL FP FL: 1.6; CtBP-E1A blk: -14.5; Sfp PPTase inh: 17.6%; TRPV1 PAM: 2.5; gsp ag: -76.3%[15.4 µM]; gsp antag: -6.0%; ClpP mod: -0.8%
